# TRPML1 blocker: qHTS for Inhibitors of the Human Mucolipin Transient Receptor Potential 1 (TRPML1); AID 624415, 2012; TRPML1-inducible cells, Ca2+ dye fluorescence, FDSS; hits give low values; inhibition of EC80 agonist-evoked calcium signal; hit rate 0.02% among 390,000; activity change, negative = inhibition, % (test concentration not listed); in the data active means activity change below about -50%; inconclusive means about -30% to -50%; inactive means above about -30%;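 note: stimulus is agonist 54-4 at its EC80 concentration; % is set by controls: 0 for no effect and ±100 for the full control effect; compound concentration not given in the record; the text of the record puts the active cut at -80%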
#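 Calcium fluorescence in TRPML1-DL cells induced overnight with Tet: a 110 s read after compound pin addition, then a 110 s antagonist read after challenge with 54-4 at 4 uM final (EC80).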
# PINK1 modulator: A Quantitative High throughput Screen to Identify Chemical Modulators of PINK1 Expression | PINK1 immunofluorescence, high-content cytometry, 24 h | Potency, µM (doses to about 76.6 µM), without a hit: top-dose activation (PINK1 increase), usual class: activators | hit rate 0.2% among 410,000 | AID 624263, 2012; active = well fitted activation curve with a large enough effect; inconclusive = small, poorly fitted or top-dose-only effect; inactive = flat fitted curve, though single readings scatter; cell line not stated here;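 note: potency is the fitted concentration of half-maximal effect; % of control where 0% means no effect; nearly all actives have a fitted effect of over 65% in size; a mitochondrial uncoupler was the plate control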
#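 Decision-based qHTS: stable cells, 24 h exposure to five compound concentrations, CCCP as control. Fixed cells stained for PINK1 plus nuclear, mitochondrial and cell markers, cytometer read.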
# Menin-MLL FL inh: qHTS Assay for Inhibitors Targeting the Menin-MLL Interaction in MLL Related Leukemias: Competition With Fluorescein Labeled MLL-derived Peptide; Fluorescence polarization, fluorescein-MLL peptide displacement from menin; FP activity change, % at 61.4 µM; 290,000 tested, under 10 active; inconclusive = falling polarisation curve, or a change in total fluorescence; inactive = total fluorescence flat and polarisation flat or rising; no compound was filed as active; the % refers to the polarisation; negative = inhibition;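 note: % of control where 0% means no effect; inhibitors lower the polarisation; unlabelled MLL peptide was the positive control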
# ClpP mod: qHTS Assay for Activators of ClpP. Potency, µM (doses to about 57.5 µM), for inactives: at the highest dose activity change, negative = active. ATP-dependent Clp protease proteolytic subunit (Bacillus subtilis (strain 168)), P80244. hit rate 1.9% among 340,000. purified B. subtilis ClpP, FRET peptide cleavage, 20 min; active = well fitted falling curve with a large enough effect; inconclusive = small, poorly fitted or top-dose-only effect; inactive = no such curve, though single readings can be large or run the other way; note: potency is the fitted concentration of half-maximal effect; the source files actives as falling curves though it sought activators and does not explain the sign; nearly all actives have a fitted effect of over 65% in size; many hits overshoot -100%
# Target sequence (P80244 whole entry, looked up): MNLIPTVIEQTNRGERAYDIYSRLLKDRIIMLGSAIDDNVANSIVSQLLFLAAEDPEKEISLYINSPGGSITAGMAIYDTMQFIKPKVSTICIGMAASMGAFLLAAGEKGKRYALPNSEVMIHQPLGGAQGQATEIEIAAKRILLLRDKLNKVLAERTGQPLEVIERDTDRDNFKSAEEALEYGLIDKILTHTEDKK
#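 Buffer: 100 mM Tris/HCl pH8, 100 mM KCl, 0.05% low protease BSA, 2.5% glycerol, 0.01% Tween-20. ClpP 10 microg/mL final; 20 min RT; delta FRET normalized to ADEP and DMSO controls.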
# TRPV1 potentiator: HTS Assay for Compounds that Act as Potentiators of the Vanilloid Receptor 1; Transient receptor potential cation channel subfamily V member 1 (Homo sapiens), Q8NER1; TRPV1-expressing cells, Fluo-8 calcium influx, capsaicin EC20 potentiation; host cell line not named in the record; control for the full effect not named in the record; potentiation, % at 8.33 µM; hit rate 0.02% among 320,000; AID 540277, 2011; active means potentiation above 80%; inconclusive means 30% to 80%; inactive means below 30%; note: 0% is about no effect
# Target sequence (Q8NER1 whole entry, looked up): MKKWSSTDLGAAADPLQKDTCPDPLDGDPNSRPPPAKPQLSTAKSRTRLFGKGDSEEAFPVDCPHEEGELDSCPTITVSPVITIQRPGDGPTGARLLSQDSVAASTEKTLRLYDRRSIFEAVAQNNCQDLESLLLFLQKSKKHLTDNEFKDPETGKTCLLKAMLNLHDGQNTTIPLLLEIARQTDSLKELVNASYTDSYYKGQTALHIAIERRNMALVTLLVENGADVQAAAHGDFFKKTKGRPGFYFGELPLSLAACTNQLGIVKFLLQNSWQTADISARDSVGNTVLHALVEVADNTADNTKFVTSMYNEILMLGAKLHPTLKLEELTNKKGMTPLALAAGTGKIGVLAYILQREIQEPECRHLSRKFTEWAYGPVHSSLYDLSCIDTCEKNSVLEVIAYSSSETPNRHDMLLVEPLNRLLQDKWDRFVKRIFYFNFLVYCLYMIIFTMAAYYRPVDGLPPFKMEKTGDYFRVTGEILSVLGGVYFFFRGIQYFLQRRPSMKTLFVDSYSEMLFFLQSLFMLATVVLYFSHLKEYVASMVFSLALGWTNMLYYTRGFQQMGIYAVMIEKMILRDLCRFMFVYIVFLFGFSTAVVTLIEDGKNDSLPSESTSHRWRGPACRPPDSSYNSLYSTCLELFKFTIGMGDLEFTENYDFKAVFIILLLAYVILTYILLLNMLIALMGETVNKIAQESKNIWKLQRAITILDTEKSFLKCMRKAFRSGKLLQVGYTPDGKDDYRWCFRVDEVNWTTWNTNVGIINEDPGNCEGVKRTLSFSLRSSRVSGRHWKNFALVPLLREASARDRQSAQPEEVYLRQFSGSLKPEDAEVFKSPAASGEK
#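 TRPV1-expressing cells were cultured overnight at 35.5C and loaded with Fluo-8 calcium dye for 40 to 90 min at room temperature. After a 10 s baseline, compound was added and calcium influx was read kinetically for 3 min (ex 480/em 520 nm).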
# Sfp PPTase inh: qHTS Assay for Inhibitors of Bacillus subtilis Sfp phosphopantetheinyl transferase (PPTase); 4'-phosphopantetheinyl transferase ffp (Bacillus subtilis), Q9F4F7; Biochemical Sfp PPTase activity, qHTS; Potency, µM, without a hit: max response, negative = inhibition, actives largely listed as inhibitors; hit rate 3.5% among 310,000; active = well fitted inhibition curve with a large enough effect; inconclusive = small, poorly fitted or top-dose-only effect, or another doubt; inactive = no such curve, though single readings can be large or run the other way;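 note: the enzyme is Sfp with the accession as filed and its product quenches rhodamine fluorescence; potency is the fitted concentration of half-maximal effect; 0% = enzyme reaction without inhibitor and -100% = no enzyme wells; top concentration of the series not given in the record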
#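 Buffer: 50 mM Hepes-Na pH 7.6, 10 mM MgCl2, 0.01% Nonidet P-40, 0.01% BSA. Enzyme 15 nM, pre-exposed to compound 15 min; substrates then added and fluorescence change tracked over 30 min.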
# TRPML1 ag: qHTS for Agonists of the Human Mucolipin Transient Receptor Potential 1 (TRPML1); TRPML1-expressing cells, Ca2+ dye fluorescence, FDSS; host cell line not named in the record; reference of the full effect not given here; activation, % (test concentration not listed); hit rate 0.12% among 410,000; in the data active = activation above about 50%; inconclusive = about 30% to 50%; inactive = below about 30%; note: 0% is about no effect; the text of the record puts the active cut at 80%
#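 Tetracycline-induced TRPML1-DL cells are seeded and incubated overnight before loading with a no-wash Ca2+ dye and quencher. Agonist activity is taken from the 110 s fluorescence read following compound pin-transfer on an FDSS, before EC80 54-4 challenge.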
# Active calls of the source: *; ? = inconclusive; nt = no result given; & = joins results of further samples; [ ] = dose if it differs, or a comment.
SMILES,TRPML1 blocker,PINK1 modulator,Menin-MLL FL inh,ClpP mod,TRPV1 potentiator,Sfp PPTase inh,TRPML1 ag
CC(C)C(NC(=O)CCN1C(=O)c2ccccc2C1=O)c1ccccc1 (stereo not given),16,-0.5%,-0.3,-1.3%,-18,12%,-0.7
C=CCCN(C(C(=O)OC)C(C)C)S(=O)(=O)c1ccccc1Br (stereo not given),60&42,0.8%,-2.1&0.2,0.6%,-21,-3%&5%,2.8&1.6
Cc1cc(C)cc(-n2c(SCC(=O)Nc3cccc(S(=O)(=O)NC4=NCCCCC4)c3)nc3ccccc3c2=O)c1,16,8.2%,-1.5,-0.7%,7,12%,-0.1
Cc1c(NS(=O)(=O)c2cccc(C(=O)N3CCCC3)c2)c(=O)n(-c2ccccc2)n1C,-11,-0.6%,nt,-2.4%,nt,nt,0.3
Cc1ccc(C)c(N2CCN(C(=O)CCNC(=O)Cn3ccc4ccccc4c3=O)CC2)c1,-4,2.2%[38.3 µM],4.1,-27%,11,13%,-0.2
COc1cccc(NC(=O)c2oc3ccc(S(=O)(=O)N4CCOCC4)cc3c2C)c1,12&-2,1.0%&-0.1%,-0.1,-0.9%&-19%,-4,3%,-0.7&1.8
COc1ccc(CNC(=O)C[C@H]2C[C@H](C(=O)N3CCOCC3)[C@@]3(C)c4[nH]c5cc(-c6ccco6)ccc5c4CCN3C2=O)cc1OC,-10,-0.4%,nt,3.9%,nt,nt,0.3
CCN(C(=O)c1ccc2c(=O)n3c(nc2c1)CCCCC3)c1ccc(F)cc1,-10,4.9%,0.9,0.2%,-10,11%,-0.6
CO[C@@]1(NC(=O)C2SC(=C(C(N)=O)C(=O)O)S2)C(=O)N2C(C(=O)O)=C(CSc3nnnn3C)CS[C@@H]21 (stereo not given in full),-12,-0.2%,nt,1.0%,7,nt,0.2
CCC(C)NC(=O)C1CCN(S(=O)(=O)c2cccnc2)CC1 (stereo not given),7,1.0%,-1.1,-5.1%,3,11%,-0.5
Cc1ccc(Cl)cc1-c1cc(C(=O)N2CCc3ccccc3C2)[nH]n1,nt,0.6%,nt,-3.1%,nt,nt,-0.5
CCCC(=O)Nc1nnc(S(=O)(=O)N(CC)c2ccccc2)s1,0,1.7%,-18,-3.1%,14,7%,-0.3
O=C(Cn1nc2ccccc2n1)N/N=C/c1cc([N+](=O)[O-])ccc1O,8,-0.5%,2.0,nt,4,7%,2.3
Cc1ccc(C(=O)N/C(=C\c2cn(-c3ccccc3)nc2-c2ccccc2)C(=O)N2CCOCC2)cc1,0,?,6.3,2.0%,11,10%,1.5
CC(=O)Nc1ccc(-c2ccnc3c2CC(C)(C(=O)NCCN(C)C)O3)cc1 (stereo not given),nt,0.4%,nt,4.8%,nt,nt,-0.1
CN(Cc1ccsc1)C(=O)CCc1nnc(Cc2c[nH]c3ccccc23)o1,-8,0.1%,-2.8,nt,12,31%[activator],-0.9
COc1ccccc1C(=O)N(C)CC(=O)Nc1ccc(N2CCOCC2)cc1,0,3.1%,nt,-0.3%,-3,nt,-0.7
O=C(COC(=O)/C=C/c1ccc([N+](=O)[O-])cc1)NC(c1ccccc1)c1ccccc1,-2,2.7%,2.1,1.4%,2,-17%,0.7
O=C(Cn1nnc2ccccc21)c1ccccc1,8,2.5%,2.1,-1.0%,0,16%,0.2
Nc1nnc(SCC(=O)Nc2ccccc2C(F)(F)F)s1,15,0.5%,nt,-1.3%,nt,nt,0.3
O=C(COc1ccc(Cl)cc1)NNC(=O)CSc1nncs1,?,0.5%,-4.5,-1.3%,5,20%,0.1
Cc1cc(N/N=C/c2ccc(Cl)cc2)nc(NCc2ccccc2)n1,5,-0.8%,1.6,nt,-9,?,0.8
COC(=O)c1sc2ccccc2c1NC(=O)c1ccc(S(=O)(=O)N2CCCC(C)C2)cc1 (stereo not given),-2,1.3%,0.8,0.8%,8,3%,-0.7
O=C(Nc1ccccc1)N1CCCC(c2nc(-c3ccc(F)cc3)no2)C1 (stereo not given),26,0.5%,4.2,0.6%,-27,9%,-0.2
COc1ccc(-c2nc(S(=O)(=O)c3ccccc3)c(N3CCN(C)CC3)o2)cc1,0,0.4%,nt,-1.7%,nt,nt,-0.3
COc1ccc(/C=C(\NC(=O)c2ccc(C)cc2)C(=O)NCCCn2ccnc2)cc1,10,-1.0%,-1.2,nt,6,24%,0.4
COc1cccc(C2C(C(N)=O)=C(C)Nc3nc(-c4cccc(Cl)c4)nn32)c1 (stereo not given),14,1.7%,-1.4,0.8%,-33,10%,0.0
Cc1ccc(-c2cnc(C(O)c3ccc(Cl)c(F)c3)[nH]2)cc1 (stereo not given),nt,3.4%,nt,0.0%,nt,nt,-1.0
Cc1ccc(NC(C)c2cc(Cl)ccc2O)cc1 (stereo not given),-7,0.4%,3.3,-1.4%,11,-3%,1.3
COc1ccc2nc(/C=N/NC(=O)CCCCCNC(=O)OC(C)(C)C)ccc2c1,-6,5.7%,3.6,0.9%,7,2%,0.5
COc1ccc(CNC(=O)c2c([S-])n(-c3ccc(C)cc3)c3cccc[n+]23)cc1,-9,4.4%,13,nt,6,-13%,1.0
CC1COC(c2cccn2Cc2ccccc2Cl)=N1 (stereo not given),22,6.7%,1.5,-2.9%,14,0%,-0.4
COCCCn1c(C2CCCCC2)nc2oc3cc(OC)ccc3c(=O)c2c1=O,-5,2.4%[38.3 µM],0.8,-2.3%,14,2%,0.8
CCCCc1nc2cc(C(=O)N3CCC[C@H]3CO)ccc2o1,-9,0.6%,0.9,-0.2%,2,3%,0.1
CCO[C@@H]1OC(C(=O)N2CCCCCCC2)=C[C@H](c2cn(C(C)=O)c3ccccc23)[C@H]1CCCO,11,-0.1%,-0.3,-3.8%,16,7%,0.9
Cn1cnnc1SCC(=O)Nc1cc(C(F)(F)F)ccc1N1CCOCC1,3,-1.3%,0.0,nt,15,-1%,-0.5
O=C(NCc1cccs1)C(=O)NCC1OCCCN1S(=O)(=O)c1ccccc1 (stereo not given),-25,4.4%,-2.4,-1.2%,?,-3%,0.1
Cn1cc(C(=O)N2CCN(c3cccc(Cl)c3)CC2)c(=O)c2cc(S(=O)(=O)N3CCOCC3)ccc21,-5,-0.2%,1.4,-0.5%,7,6%,-0.5
O=C(C1=C(O)C(=O)N(CCN2CCOCC2)C1c1ccc(F)cc1)c1cc2ccccc2o1 (stereo not given),33,0.1%,nt,-3.2%,23,21%,0.5
Cc1ccc(C)c(NC(=O)CSc2ncc3c(n2)-c2cc(Cl)ccc2N(Cc2ccccc2F)S3(=O)=O)c1,-4,1.2%,nt,14%,nt,nt,-1.2
COc1ccc(OCC(=O)OC2CCN(C)CC2)cc1,19,-0.8%,3.6,16µM*,-5,-3%,-0.6
O=C(O)CSc1nc2c(c(C(F)(F)F)n1)CCc1ccccc1-2,-1,0.5%,0.1,nt,18,21%,0.8
O=C(Nc1cccc(C(F)(F)F)c1)C1CCN(S(=O)(=O)c2ccc(N3CCCC3=O)cc2)CC1,23,3.9%,nt,-3.0%,-11,10%,0.8
Cc1ccc(C(C)NC(=O)c2ccco2)cc1C (stereo not given),15,6.4%[38.3 µM],-0.3,0.5%,-1,19%,-0.5
CC1=NN(C(N)=S)C(=O)C1N=Nc1cccc(C(=O)O)c1 (stereo not given),1,2.3%,-7.7,nt,-1,45µM*,0.0
CCOC(=O)CN(Cc1ccccc1)C(C(=O)NC1CCCCC1)c1ccccc1 (stereo not given),24,?,nt,0.0%,nt,nt,1.1
C/C(=N\NC(N)=S)c1ccccc1,nt,-1.1%,1.7,0.0%,6,?,nt
CCc1nnc(SCc2ccc(C(=O)OC)o2)n1N,1,0.4%,4.0,-0.9%,12,-18%,0.9
Cc1cccc(NS(=O)(=O)c2cccc(C(=O)N3CCCCCC3)c2)c1,14,-1.4%,nt,-2.6%,24,nt,-0.3
CCOC(=O)c1c(C)n(-c2ccccc2)c2ccc(OC(=O)COc3ccc(Cl)cc3)cc12,0,0.7%,nt,3.3%,nt,nt,-0.6
CCCCCCSc1cccc(-c2nc3ccc(Cl)cn3c2NCc2ccccc2)c1,13,3.0%&1.3%,nt,-11%&-15%,25,nt,-0.6&0.1
Cc1nc2ccc(NC(=O)c3cccc(C(F)(F)F)c3)cc2o1,3,-0.3%,1.8,-0.9%,-12,17%,0.8
Cc1ccc2nc(-c3cccc(Br)c3)c(CC3CCCCC3)n2c1,-13,8.1%,nt,-5.1%,nt,nt,-0.3
CC(C)C(=O)NC(c1ccccc1Cl)c1c(O)ccc2ccccc12 (stereo not given),-8,?,1.5,25µM*,-1,3%,-0.4
CCOc1cc(C(=O)N(C)CC(=O)Nc2cccc3ccccc23)ccc1OC,5,0.0%,nt,-1.2%,12,nt,0.3
COc1ccc(NS(=O)(=O)c2cccc(C(=O)NNC(=O)c3ccc(Br)o3)c2)cc1,1,-0.9%,nt,nt,30,nt,0.7
COc1ccc(-c2cc(=O)c3cc(F)ccc3[nH]2)cc1,-20,-0.7%,?,3.9%,-17,1%&18%,-0.2
CC(=O)Nc1cccc(-c2ccnc3c2CC(C)(C(=O)Nc2ccc4c(c2)OCO4)O3)c1 (stereo not given),nt,5.8%,nt,-1.3%,nt,nt,-0.8
Cc1ccc(Cn2ccc(NC(=O)c3noc4c3CCCC4)n2)cc1,4,0.1%[38.3 µM],5.0,5.9%,2,16%,0.9
O=C(Nc1ccc(NC(=O)C2CCCCC2)cn1)c1ccco1,-6,-0.5%,0.2,-3.1%,6,-6%,-0.3
O=C(Nc1ccc(C2=NCCN2)cc1)c1ccc(Cl)c(C(=O)Nc2ccc(C3=NCCN3)cc2)c1,nt,nt,-2.1,nt,16,3%,nt

# Single records (already shown). Values in the order: TRPML1 blocker, PINK1 modulator, Menin-MLL FL inh, ClpP mod, TRPV1 potentiator, Sfp PPTase inh, TRPML1 ag
# CCc1nnc(SCc2ccc(C(=O)OC)o2)n1N is entered as 1, 0.4%, 4.0, -0.9%, 12, -18%, 0.9
# Cc1cccc(NS(=O)(=O)c2cccc(C(=O)N3CCCCCC3)c2)c1 is entered as 14, -1.4%, nt, -2.6%, 24, nt, -0.3
